High-throughput results (PubChem BioAssay)
AF4-AF9 inh: blocks AF4 peptide binding to human AF9; P42568; AlphaScreen, biotin-AF4 peptide binding to FLAG-AF9; inhibition, % at 10 µM; 350,000 compounds, 0.47% hits; AID 651704;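 active means every replicate reaching a set inhibition limit, whatever the replicate mean, cut at about 25% in these data; inconclusive means mean inhibition reaches that limit but some replicates miss it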;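 further: 0% = plate neutral control median and 100% = total signal loss; the record names both 10 and 1 µM as test concentration; the first replicate is given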
Target sequence (P42568 whole entry, looked up): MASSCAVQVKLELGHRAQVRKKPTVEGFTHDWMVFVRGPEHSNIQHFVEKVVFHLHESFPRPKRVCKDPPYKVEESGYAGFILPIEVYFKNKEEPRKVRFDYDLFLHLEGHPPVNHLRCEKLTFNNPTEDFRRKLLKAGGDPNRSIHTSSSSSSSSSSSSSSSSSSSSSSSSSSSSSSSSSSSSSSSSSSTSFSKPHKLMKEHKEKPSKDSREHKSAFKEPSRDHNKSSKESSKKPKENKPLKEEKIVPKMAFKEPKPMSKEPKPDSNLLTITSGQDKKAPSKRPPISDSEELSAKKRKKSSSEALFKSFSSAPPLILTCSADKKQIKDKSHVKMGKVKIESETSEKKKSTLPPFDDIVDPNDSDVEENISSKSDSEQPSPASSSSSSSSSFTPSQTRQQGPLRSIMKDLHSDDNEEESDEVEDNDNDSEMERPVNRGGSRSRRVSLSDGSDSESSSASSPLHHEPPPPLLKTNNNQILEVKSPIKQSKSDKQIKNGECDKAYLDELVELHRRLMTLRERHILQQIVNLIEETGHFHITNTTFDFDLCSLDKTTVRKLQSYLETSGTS
Ecoli rRNA inh: inhibits bacterial ribosomal RNA function over humanized ribosomes; 350,000 compounds, 1.6% hits; GFP signal change (wild-type ribosome), % (concentration not given with the values); AID 720706; E. coli WT GFP vs humanized-ribosome RFP mutants, fluorescence, 24 h; active compounds read low; DMSO median 0, no signal -100;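 active means significant combined selectivity score with lowered wild-type GFP, culture density cut under 30%, mutant RFP and density less affected; inactive means any of these conditions unmet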; further: one replicate is shown; some compounds called inactive have numbers as strong as hits
E coli growth: inhibitors of Escherichia coli growth. OD600, 23 h; active compounds read low. 330,000 compounds, 0.21% hits. OD600 absorbance (test concentration not listed);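 active means OD600 absorbance below the run mean of sample wells minus 3.6 SD, in any replicate, cut at about 0.56 in these data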;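 further: stock transfer was 300 nL into about 60 µL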
HNF4A DNA FP: change in binding of human HNF4 alpha to DNA | P41235 | HNF4a-FITC DNA binding, fluorescence polarization, 1 h | activity change, % at 10 µM | 360,000 compounds, 0.3% hits | AID 1224865; in the data active means activity change above about 30%, passing the limit was not always enough;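 further: controls were the assay level and a saturating level of protein; the project sought stronger binding though the title names inhibitors; some compounds called inactive have numbers as strong as hits; positive values seem to mean higher polarization but the record does not say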
Target sequence (P41235 whole entry, looked up): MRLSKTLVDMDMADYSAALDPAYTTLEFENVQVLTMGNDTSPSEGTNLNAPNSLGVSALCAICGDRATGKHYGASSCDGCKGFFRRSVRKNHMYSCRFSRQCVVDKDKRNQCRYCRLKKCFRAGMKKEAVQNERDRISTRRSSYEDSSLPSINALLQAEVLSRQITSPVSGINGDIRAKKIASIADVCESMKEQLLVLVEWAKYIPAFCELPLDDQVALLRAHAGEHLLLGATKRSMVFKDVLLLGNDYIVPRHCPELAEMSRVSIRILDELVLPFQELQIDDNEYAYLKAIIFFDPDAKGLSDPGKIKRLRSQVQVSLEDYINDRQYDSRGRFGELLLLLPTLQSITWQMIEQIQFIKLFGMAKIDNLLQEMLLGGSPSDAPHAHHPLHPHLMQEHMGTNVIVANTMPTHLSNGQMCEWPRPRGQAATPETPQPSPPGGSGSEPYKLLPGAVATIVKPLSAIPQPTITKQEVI
FGF22 binding: binders of recombinant human FGF22 by thermal shift | SYPRO orange fluorescence; percent of sucrose octasulfate shift, DMSO zero | calls only at 9.99 µM | 340,000 compounds, 1.5% hits | Q9HCT0;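 active means melting point raised past a set limit in the mean and every replicate; inconclusive means no clear call; three in four hits are not shown here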
Vif TR-FRET: inhibitors of Vif binding to APOBEC3G peptide, primary screen, biochemical, TR-FRET, GST-Vif 1-94, biotin-A3G peptide, dose response retest (AID 1117319); TR-FRET GST-Vif / biotin-A3G peptide binding; higher % means a stronger effect; test concentration not given here; strong numbers were not always called active; inhibition, %; hits with a dose series show IC50 in µM; 260,000 compounds, 0.57% hits;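 active means above the screen mean plus three standard deviations and confirmed in dose response; inconclusive means results disagree or hit not tested in dose response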;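 further: Vif residues 1-94 fused to GST binding biotinylated APOBEC3G peptide 110-148; 0% = full assay without inhibitor and 100% = GST in place of GST-Vif; retest series ran down from 100 µM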
ALR inh: blocks human ALR sulfhydryl oxidase activity; purified ALR, DTT oxidation, H2O2 HRP-luminol luminescence; inhibition, % (concentration not given with the values); 290,000 compounds, 3.8% hits; AID 485317;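 active means mean and each replicate at 75% or more; inconclusive means only one of the two met; inactive means neither met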;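 further: stock transfer was 7.5 nL into about 7.5 µL; 0% = neutral wells and 100% = wells with inactivated enzyme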
Ecoli rRNA inh OD600: further read-out of Ecoli rRNA inh, marked with its call; OD600 change, %; measured here: OD600 growth;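 optical density of the mix in the first replicate; 0 = DMSO median and -100 = no signal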
Ecoli rRNA inh RFP: second read-out of Ecoli rRNA inh, no call of its own (marks repeat the call); RFP signal change, %; measured here: RFP humanized mutant strains;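 first replicate; 0 = DMSO median and -100 = no signal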
* = called active by the depositor; i = inactive; ? = inconclusive; nt = no result given; & = joins results of further samples.

SMILES | AF4-AF9 inh | Ecoli rRNA inh | Ecoli rRNA inh OD600 | Ecoli rRNA inh RFP | E coli growth | HNF4A DNA FP | FGF22 binding | Vif TR-FRET | ALR inh
C[C@H](CO)N1C[C@H](C)[C@H](CN(C)Cc2ccc(-c3ccccc3)cc2)Oc2ccc(NC(=O)CCC(F)(F)F)cc2C1=O | 5.3 | 1 | -2 | 15 | nt | nt | i | nt | nt
C[C@H]1CN([C@@H](C)CO)C(=O)Cc2cc(NC(=O)NC3CCCCC3)ccc2O[C@@H]1CN(C)CC1CC1 | 1.3 | 4 | 17 | 1.0 | nt | nt | i | nt | nt
COc1ccccc1CNC(=O)C1CCN(C(=O)NC2CCCCC2)CC1 | -1.2 | 11 | 10 | -0.9 | 0.66 | 1.5 | i | 5% | 1
CCc1ccccc1N1CC(C(=O)Nc2cc(C)on2)CC1=O (configuration not stated) | 0.5 | 4 | 2 | -0.6 | 0.66 | 2.5 | i | nt | -15
CCCCNC(=O)CSc1nc2ccccc2c(=O)n1CCNC(C)=O | nt | nt | nt | nt | 0.74 | 4.4 | nt | 0% | nt
O=C(NNc1c2ccccc2nc2ccccc12)c1cc2ccccc2cc1O | nt | nt | nt | nt | 0.76 | -11 | nt | 15% | nt
COc1ccc(C(C)=O)cc1COC(=O)c1ccc(OCc2c(C)noc2C)cc1 | nt | 4 | 1 | -5.3 | 0.75 | -0.5 | nt | -1% | -2
Cc1ccc2cc(C)c3nnc(SCC(=O)c4cccs4)n3c2c1C | 7.6 | -39* | -27* | -5.2* | 0.69 | -0.1 | i | -6% | nt
CCCc1cc2c(cc1NC(=O)c1ccccc1Cl)OCO2 | nt | nt | nt | nt | 0.67 | -1.0 | nt | 4% | -8
Cc1ccc(-c2csc(NCCc3nc4cc(Cl)c(Cl)cc4n3CCOCCO)n2)cc1 | -0.7 | 5 | 12 | 22 | 0.73 | 0.3 | i | nt | -7
Cn1cnc(S(=O)(=O)N2CCCCC2c2cc(C(=O)Nc3ccccc3Cl)no2)c1 (configuration not stated) | 0.3 | -1 | -11 | -1.0 | nt | 4.4 | i | nt | nt
CCCn1c(CCC(=O)O)ccc1-c1ccc(F)cc1 | nt | nt | nt | nt | 0.71 | 0.8 | nt | ? | 28
COc1ccc(-c2cccc(-c3cc(=O)oc4cc(OC)cc(OC)c34)c2)cc1 | -49 | 10 | 27 | -2.4 | 0.72 | -0.6 | i | -1% | nt
CC1CCCCN1C(=O)c1cc(F)c(F)cc1Cl (configuration not stated) | nt | nt | nt | nt | 0.7 | -2.5 | nt | 5% | -1
CC(=O)Nc1nc(COc2ccccc2)cs1 | nt | nt | nt | nt | 0.66 | 4.3 | nt | 3% | -7
O=c1cc(CN2CCCCCCC2)c2c(ccc3ccccc32)o1 | 5.8 | -1 | -7 | 1.9 | nt | -1.8 | i | nt | nt
Cc1cc(C)c(C#N)c(Nc2ccccc2)n1 | nt | nt | nt | nt | 0.68 | -0.6 | nt | -4% | nt
CC1=Nc2cc(C(=O)N3CCCC3)ccc2Sc2ccc(C)cc21 | 6.2 | -6 | -8 | 1.7 | 0.7 | -0.2 | i | nt | -4
CC(C)NC(=O)Nc1cccc2c1O[C@@H](CN(C)C(=O)NC1CCCCC1)[C@@H](C)CN([C@@H](C)CO)C2=O | 0.0 | 1 | 8 | -2.9 | nt | nt | i | nt | nt
Cn1cccc1Cc1nnc(SCC(=O)NCc2ccco2)n1CCc1ccccc1 | nt | nt | nt | nt | 0.7 | 6.5 | nt | 1% | 31
CC1=CCC(C(=O)O)C(C(=O)O)C1 (configuration not stated) | nt | nt | nt | nt | 0.69 | 0.6 | nt | 14% | -10
O=C(CN1C(=O)NC2(CCCCC2)C1=O)Nc1cc(C(F)(F)F)ccc1N1CCCCC1 | -22 | 3 | -1 | 3.4 | 0.7 | 2.7 | i | 5% | -10
COc1ccc(OC)c(C2C(C(=O)Nc3ccc(F)cc3)=C(C)Nc3nc(CCCO)nn32)c1 (configuration not stated) | 0.1 | 4 | 9 | -1.1 | 0.72 | 2.1 | i | 55µM* | -5
O=S(=O)(Nc1ccc(S(=O)(=O)N2CCOCC2)cc1)c1ccccc1 | nt | nt | nt | nt | 0.71 | -1.5 | nt | 31% | -4
O=C(CSc1nc(C2CC2)nc2ccccc12)Nc1cccc(O)c1 | -3.2 | 2 | 11 | 1.7 | 0.74 | 4.4 | i | nt | nt

Following part
SMILES | AF4-AF9 inh | Ecoli rRNA inh | Ecoli rRNA inh OD600 | Ecoli rRNA inh RFP | E coli growth | HNF4A DNA FP | FGF22 binding | Vif TR-FRET | ALR inh
CN(CCOc1ccccc1)C(=S)Nc1ccc(OC(F)F)cc1 | 0.1 | -2 | -7 | 0.1 | 0.69 | 1.1 | i | nt | -3
CCN(c1ccccc1)S(=O)(=O)c1cc(C(=O)NCC(c2ccc(OC)cc2)N(C)C)ccc1C (configuration not stated) | 2.6 | nt | nt | nt | nt | 6.5 | i | nt | nt
CCOC(=O)N1CCN(CC(O)COc2ccc(-c3ccccc3)cc2)CC1 (configuration not stated) | -5.2 | -10 | -19 | 5.0 | 0.66 | -3.7 | i | nt | -5
Cc1cn(C2OC(COC(=O)c3ccccc3)C(O)C2O)c(=O)[nH]c1=O (configuration not stated) | -1.1 | 4 | -2 | 0.5 | 0.66 | -2.2 | i | 2% | nt
CCc1noc(C)c1C(=O)Nc1cccc(S(=O)(=O)N(C)c2ccccc2)c1 | -9.2 | -7 | -12 | 5.6 | 0.68 | -3.8 | i | -5% | -3
CNC[C@H]1Oc2c(NC(=O)C3CCCCC3)cccc2C(=O)N([C@H](C)CO)C[C@H]1C | 4.3 | 1 | 4 | 1.0 | nt | nt | i | nt | nt
O=C(Cc1cccnc1)N1CC(=O)N2[C@@H](CO)[C@H](c3ccc(C4=CCCCC4)cc3)[C@@H]2C1 | 1.5 | 0 | 6 | -2.7 | nt | nt | i | nt | nt
C/C=C/c1ccc([C@H]2[C@H](CO)N[C@H]2CN(C(=O)C2CCC2)C(C)C)cc1 | -0.3 | 1 | 11 | -0.6 | nt | nt | i | nt | nt
CCOC(=O)C1=C(CC)OC(N)=C(C#N)C1c1ccc(OC)cc1OC (configuration not stated) | nt | nt | nt | nt | 0.69 | 3.4 | nt | 9% | -6
COc1ccc(CCNC(=O)CN2C(=O)COc3ccc(S(=O)(=O)N4CCOCC4)cc32)c(OC)c1 | 3.2 | 2 | 8 | -1.5 | 0.71 | 1.7 | i | nt | 2
C[C@@H]1CN([C@H](C)CO)C(=O)c2cccc(NS(=O)(=O)c3ccccc3)c2O[C@H]1CN(C)Cc1ccc(-c2ccccc2)cc1 | 4.8 | 1 | 2 | 2.9 | nt | nt | i | nt | nt
CCC(C)NC(=O)CC(NS(=O)(=O)c1ccc(C)cc1)c1ccc(OC)cc1 (configuration not stated) | nt | nt | nt | nt | 0.68 | -5.8 | nt | 2% | -7
Cc1ccc(S(=O)(=O)N(C)CC(=O)N2CCc3ccccc32)cc1 | nt | nt | nt | nt | 0.71 | -3.0 | nt | 29% | -3
COc1cccc2cc(C(=O)NCc3ccc(Cl)cc3)c(=N)oc12 | -0.6 | 0 | 6 | 4.1 | 0.71 | -0.4 | i | nt | -4
COc1ccccc1Nc1nnc(Cc2ccccc2)c(=O)[nH]1 | -1.0 | 10 | 7 | -0.3 | 0.66 | -2.4 | i | -6% | 2
COc1ccccc1CNC(=O)c1cccs1 | nt | nt | nt | nt | 0.64 | 2.3 | nt | 1% | 1
CS(=O)(=O)N1[C@@H](CO)[C@@H](c2ccccc2)C12CN(C(=O)C1CC1)C2 | 3.2 | 2 | 5 | -0.3 | nt | nt | i | nt | nt
CC1(C)Oc2ccc3ccc(=O)oc3c2C(/C=N/O)=C1Cl | -3.8 | 1 | 2 | 2.7 | nt | -2.0 | i | 5% | 16
O=C(O)CSc1nnc(-c2cc3ccccc3o2)n1-c1ccccc1 | nt | nt | nt | nt | 0.72 | 0.2 | nt | 6% | 2
COc1cc(NS(=O)(=O)c2ccc(NC(=O)CN3C(=O)c4ccccc4C3=O)cc2)ncn1 | 0.4 | 3 | 4 | -1.2 | 0.7 | -2.2 | i | 10% | nt
C[C@@H]1CN([C@@H](C)CO)C(=O)c2cc(NC(=O)Nc3ccccc3)ccc2O[C@@H](C)CCCCO[C@H]1CN(C)C(=O)C1CCCCC1 | -2.4 | 1 | -10 | -1.7 | nt | nt | i | nt | nt
COc1ccc(OC)c(NC(=O)C(CCS(C)(=O)=O)NC(C)=O)c1 (configuration not stated) | nt | nt | nt | nt | 0.65 | -0.7 | nt | 2%&26% | -33
COc1ccc(C2=NOC(C(=O)NCc3ccc(F)cc3)C2)cc1 (configuration not stated) | nt | nt | nt | nt | 0.67 | 2.6 | nt | -8% | 1
CCCc1nnc(NC(=O)C(=O)NCCN(C)C)s1 | 0.4 | 21 | 3 | 5.2 | nt | 2.8 | i | 1% | nt
CC(C)(C)c1ccc(-c2nn(CCC#N)cc2/C=N/O)cc1 | 0.8 | 6 | 9 | 1.6 | nt | -5.9 | i | -2% | -5

Continuation.
SMILES | AF4-AF9 inh | Ecoli rRNA inh | Ecoli rRNA inh OD600 | Ecoli rRNA inh RFP | E coli growth | HNF4A DNA FP | FGF22 binding | Vif TR-FRET | ALR inh
O=C(COc1ccccc1Cl)Nc1ccc(CN2CCCCC2)cc1 | -1.8 | -7 | -6 | 2.4 | 0.68 | -2.9 | i | 30% | nt
CNc1c(NS(=O)(=O)c2ccc3c(c2)CCCC3)c(=O)oc2ccccc12 | -1.4 | -2 | -3 | 0.8 | 0.7 | 1.2 | i | 8% | 4
CCOC(=O)Cc1csc(NC(=O)COc2ccc3c(c2)CCC3)n1 | -1.1 | -5 | -5 | -1.1 | 0.67 | -0.9 | i | nt | 5
COc1ccc(N2C(=O)CS/C2=N\C(=S)Nc2ccccc2)cc1 | -2.3 | -7 | -10 | 1.3 | nt | 2.1 | i | -25% | -8
Cn1c(=O)c2[nH]c(CCC3CCCC3)nc2n(C)c1=O | -2.1 | 7 | 2 | 1.8 | nt | -0.5 | i | nt | nt
COc1ccc2c(c1)c(CC(=O)Nc1ccccc1OC)c(C)n2C(=O)c1ccc(Cl)cc1 | nt | nt | nt | nt | 0.75 | 0.8 | nt | ? | -10
COC(=O)c1ccc(N2CCOCC2)c(NC(=O)c2cccs2)c1 | -1.2 | 8 | 8 | 0.1 | 0.68 | -1.9 | i | -5% | 7
O=C(CN(Cc1ccco1)C(=O)CCC(=O)Nc1nccs1)NCc1ccccc1 | nt | nt | nt | nt | 0.66 | -4.1 | nt | -8% | -16
O=C(Nc1ccccc1Cl)c1sccc1-c1ccccc1 | -2.7 | 2 | -27 | -3.4 | 0.68 | -1.7 | i | nt | -2
COc1ccc(C(=O)N/C(=C\c2cccc3ccccc23)C(=O)N2CCN(C)CC2)cc1 | 4.4 | 2 | 5 | -1.0 | 0.69 | 0.3 | i | 5% | nt
C[C@H]1CN([C@@H](C)CO)S(=O)(=O)c2ccc(-c3ccccc3F)cc2O[C@H]1CN(C)Cc1ccncc1 | 7.2 | -46 | -62 | 10 | nt | nt | i | nt | nt
CC(=O)Nc1cc(C)nn1-c1nc(C)cc(C)n1 | -14 | 2 | 2 | 0.5 | 0.73 | 6.7 | i | nt | -1
CCc1ccc(N(C(=O)CNC(=O)c2ccco2)C(C(=O)NC2CCCC2)c2ccncc2)cc1 (configuration not stated) | 2.6 | 5 | 6 | -1.0 | 0.67 | -0.4 | i | nt | 4
CCOC(=O)c1oc2ccccc2c1NC(=O)c1cccc(OC)c1 | nt | nt | nt | nt | 0.74 | 0.0 | nt | 33% | 3

This is a subset; count on the stated rates, not on these rows.
